Screens deposited in PubChem by several laboratories.
Bfl-1 A1 inh: inhibitors of the anti-apoptotic protein A1, read as caspase activation; 330,000 compounds, 0.066% hits; MEF A1-2A-BIM cells, Caspase-Glo 3/7 luminescence, 3 h; percent of clofoctol response, vehicle zero; AID 2462; caspase activation, % (concentration not given with the values);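 active means over half of replicate activation scores above 10%, or exactly half above 10 with the replicate mean above 10; inconclusive means replicate mean below 10 yet half the replicates above 10; inactive means over half of replicates below 10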;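 further: wells of about 30 µL received 50 nL stock; many hits fall short of the cut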
UCH37 DUB inh: blocks the human deubiquitinase UCH37. purified proteasome/UCH37, Ub-AMC cleavage fluorescence. Q9Y5K5. 330,000 compounds, 0.33% hits. inhibition, % (concentration not given with the values);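 active means mean of two replicates above 20%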;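 further: 0% = compound-free wells with enzyme and 100% = wells lacking proteasome; stock transfer was 100 nL into about 20 µL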
Target sequence (Q9Y5K5 whole entry, looked up): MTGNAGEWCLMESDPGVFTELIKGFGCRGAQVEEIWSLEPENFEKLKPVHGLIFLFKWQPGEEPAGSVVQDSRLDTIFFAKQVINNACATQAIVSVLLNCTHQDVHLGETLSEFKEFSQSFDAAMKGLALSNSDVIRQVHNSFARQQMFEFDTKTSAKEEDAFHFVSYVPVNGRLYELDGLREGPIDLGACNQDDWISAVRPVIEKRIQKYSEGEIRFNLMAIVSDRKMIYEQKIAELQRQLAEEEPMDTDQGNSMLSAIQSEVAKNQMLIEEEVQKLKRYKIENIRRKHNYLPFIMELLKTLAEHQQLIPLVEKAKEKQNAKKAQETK
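System: Proteasome-associated human UCH37 deubiquitinase; Input: 0.15 nM proteasome in added enzyme buffer; Also added: Ub-AMC substrate from 1 µM stock; Incubation: 30 min compound-proteasome preincubation then 25 min substrate reaction, room temperature; Detection: fluorescence, ex 355 nm, em 460 nm; Read-out: % inhibition of Ub-AMC cleavage fluorescence; Benchmarks: no-proteasome and no-compound wells.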
Vif A3G: HIV-1 Vif–A3G interaction blockers – biochemical, TR-FRET, GST-Vif 1-94, biotin-A3G peptide, dose response retest, primary screen (AID 1117319); TR-FRET GST-Vif / biotin-A3G peptide binding; higher % means a stronger effect; test concentration not given here; strong numbers were not always called active; inhibition, %; hits with a dose series show IC50 in µM; 260,000 compounds, 0.57% hits;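 active means above the screen mean plus three standard deviations and confirmed in dose response; inconclusive means results disagree or hit not tested in dose response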;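 further: Vif residues 1-94 fused to GST binding biotinylated APOBEC3G peptide 110-148; 0% = full assay without inhibitor and 100% = GST in place of GST-Vif; retest series ran down from 100 µM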
B2AR ag: agonists of human beta-2 adrenergic receptor inducing internalization. P07550. 340,000 compounds, 0.43% hits. Am2.2-beta2AR cells, FAP receptor internalization, flow cytometry; reference of the scale not given here. response, % (test concentration not listed). AID 504454;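 active means response above a set limit, near 3 SD of response in nonfluorescent compounds, cut at about 42% in these data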;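 further: stock transfer was 100 nL into about 11 µL; a reference agonist was the positive control; negative values mostly stem from fluorescent compounds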
HNF4A DNA FP: change in binding of human HNF4 alpha to DNA. P41235. HNF4a-FITC DNA binding, fluorescence polarization, 1 h. activity change, % at 10 µM. 360,000 compounds, 0.3% hits; in the data active means activity change above about 30%, passing the limit was not always enough;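 further: controls were the assay level and a saturating level of protein; the project sought stronger binding though the title names inhibitors; some compounds called inactive have numbers as strong as hits; positive values seem to mean higher polarization but the record does not say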
Target sequence (P41235 whole entry, looked up): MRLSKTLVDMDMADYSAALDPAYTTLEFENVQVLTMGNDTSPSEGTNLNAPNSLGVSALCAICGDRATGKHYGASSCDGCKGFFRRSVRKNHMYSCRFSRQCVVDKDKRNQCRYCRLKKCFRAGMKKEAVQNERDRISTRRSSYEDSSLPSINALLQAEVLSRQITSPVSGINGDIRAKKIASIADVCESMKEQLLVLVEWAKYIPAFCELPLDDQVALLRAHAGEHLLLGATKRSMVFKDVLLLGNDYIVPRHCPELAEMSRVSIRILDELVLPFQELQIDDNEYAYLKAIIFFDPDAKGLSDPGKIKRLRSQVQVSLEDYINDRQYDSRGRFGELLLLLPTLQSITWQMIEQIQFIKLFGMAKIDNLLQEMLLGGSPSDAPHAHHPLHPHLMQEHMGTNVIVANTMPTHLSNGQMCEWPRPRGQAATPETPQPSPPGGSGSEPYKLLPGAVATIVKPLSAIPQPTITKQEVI
LANA-H2A inh: blocks KSHV LANA binding to histone H2A/H2B. inhibition, % (test concentration not listed). cell-free LANA-H2A/H2B peptide, fluorescence polarization. Q9QR71. 320,000 compounds, 0.6% hits; in the data active means inhibition mostly above about 10%, no sharp cut-off; inactive means mostly below about 6.7%;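 further: stock transfer was 7.5 nL into about 10 µL; 0% = median of vehicle wells and 100% = median of positive control wells; one replicate is shown; the record names a cut of 25% in any replicate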
Ecoli growth: inhibitors of Escherichia coli growth. OD600, 23 h; hits give low values. AID 1053175. 330,000 compounds, 0.21% hits. OD600 absorbance (no concentration beside the values);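 active means OD600 absorbance below the run mean of sample wells minus 3.6 SD, in any replicate, cut at about 0.56 in these data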;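 further: stock transfer was 300 nL into about 60 µL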
Active calls of the source: *; ? = inconclusive; nt = not tested or not shown; & = joins results of further samples. Compounds were not picked by outcome; 2.1% or so of the library scored in one or more.

Values run as follows: Bfl-1 A1 inh, UCH37 DUB inh, Vif A3G, B2AR ag, HNF4A DNA FP, LANA-H2A inh, Ecoli growth
- C=CCN1C(=O)C(CC(=O)Nc2ccc(C)cc2)SC1=Nc1c(C)n(C)n(-c2ccccc2)c1=O (stereo unspecified)
  -0.3, 0.3, 5%, -3, 0.8, 1.7, 0.7
- CCOC(=O)Cc1csc(NC(=O)CSc2nnc(C(C)C)n2CC)n1
  0.2, 6.3, 18%, 1, 5.0, 4.1, 0.71
- Cc1onc(-c2ccccc2Cl)c1C(=O)Oc1cc(N)n(S(=O)(=O)c2ccc(F)cc2)n1
  -0.1, 2.1, 19%, 4, 1.9, -2.8, 0.79
- CCNC(=O)CC(=O)Nc1ccccc1C(=O)O
  -0.6, 3.0, 0%, 3, 3.1, -4.6, 0.69
- O=C(COC(=O)CCc1nc2ccccc2c(=O)[nH]1)Nc1ccc2c(c1)OCO2
  0.4, 3.7, 0%, -4, -2.2, 1.8, 0.69
- CCC1(c2ccccc2)NC(=O)N(CC(=O)Nc2ccc(OC)nc2)C1=O (stereo unspecified)
  0.9, nt, nt, 9, -97, 12, nt
- O=C1CC(C(=O)Nc2ccccc2)S/C(=N\N=C\c2ccco2)N1 (stereo unspecified)
  -0.4, nt, nt, 0, -0.9, -0.6, nt
- CCOc1ccc(NC(=O)CN2C(=O)COc3ccc(S(=O)(=O)N4CCCC4)cc32)cc1
  0.4, 0.7, 0%, 1, 3.1, -0.4, 0.69
- COC(=O)[C@]1(C)CCC[C@@]2(C)C3CC[C@@]4(C)C[C@]3(CCC21)CC(=O)N4Cc1ccc(OC)cc1 (stereo partly specified)
  -1.9, 4.4, nt, 7, -0.4, 2.9, 0.72
- COc1cccc(NC(=O)CSc2nnc(Cn3c(=O)sc4ccccc43)n2C)c1
  -0.5, 1.3, 23%, -5, -0.9, -3.3, 0.7
- CCS(=O)(=O)Nc1cccc(C2=NN(S(=O)(=O)c3ccc(C)cc3)C(c3ccco3)C2)c1 (stereo unspecified)
  0.0, 0.2, nt, -11, 4.8, -0.1, 0.71
- COc1ccccc1/C=N/NC(=O)c1ccc(C)nc1
  0.8, nt, nt, -4, 0.3, 6.9, nt
- Cc1ccc(C)c(S(=O)(=O)NCCCc2ccccc2)c1
  -1.1, 2.3, nt, 7, 1.1, -6.2, 0.6
- O=C(N/N=C/c1ccccc1C(=O)O)c1cc(-c2ccc3c4c(cccc24)CC3)n[nH]1
  0.5, nt, -2%, 4, 3.9, 0.0, nt
- Cc1sc2nc(CSc3ncn[nH]3)[nH]c(=O)c2c1C
  1.0, 0.9, 5%, 1, -0.1, 0.3, 0.67
- O=C(Nc1ccccc1)N(C1=NCCC1)c1ccccc1
  0.0, 4.4, -3%, -6, -7.4, 2.7, 0.72
- O=c1[nH]c2cc(Cl)ccc2n(CCNc2ncc(C(F)(F)F)cc2Cl)c1=O
  0.7, nt, 3%, -1, 2.8, -5.7, 0.73
- N#CCc1ccc(NS(=O)(=O)c2ccc(C3CCCCC3)cc2)cc1
  -1.1, 1.0, -2%, -1, -5.0, nt, 0.68
- CC(=O)c1cc(C#N)c(SCC(=O)Nc2nccs2)nc1C
  ?, 2.7, nt, -6, -4.1, 0.0, 0.71
- CCCCNC(=O)C(Sc1ccccc1)c1ccccc1 (stereo unspecified)
  0.3, 2.1, 24%, 0, 1.9, -0.5, 0.68
- O=C(COc1ccccc1)N/N=C/c1sc(=O)n(Cc2cccc(C(=O)O)c2)c1Cl
  1.0, nt, 17%, -2, 8.1, 4.5, nt
- COc1ccccc1N1CCN(C(=O)c2ccc(-c3ccc(Cl)cc3)o2)CC1
  1.4, 0.3, 2%, 8, 1.4, 2.2, 0.71
- CCOC(=O)c1ccc2c(c1)n(CC)c(C)[n+]2CC
  -0.2, 0.8, nt, -1, -2.9, -2.8, 0.7
- CCCc1[nH]nc2c1C1(C(=O)N(CC)c3ccccc31)C(C#N)=C(N)O2 (stereo unspecified)
  2.1, 1.2, 4%, -1, -0.5, 3.0, 0.7
- Cc1ccc(C(=O)N2C3=C(CCCC3)C(=O)NC23CCCCC3)cc1
  -0.8, -25, -1%, -3, -1.7, -4.1, 0.68
- NC(=O)c1nsc(C(=O)N(CC(=O)NC2CCCC2)Cc2ccc3c(c2)OCO3)c1N
  -0.2, nt, 4%, -2, -1.1, -2.6, nt
- Cc1c(C(=O)NCCn2ccc3ccccc32)cccc1[N+](=O)[O-]
  1.4, 2.4, 1%, -4, -1.5, 4.5, 0.69
- COc1ccc(C(=O)Nc2nnc(C3=COCCO3)o2)cc1OC
  0.7, 3.6, 4%, -4, 0.4, 1.7, 0.71
- CC(C)Cn1nc(C(=O)OCC(=O)NCC(F)(F)F)c2ccccc2c1=O
  -0.5, -0.6, nt, -2, 0.7, -2.5, 0.69
- Cc1cccc(-c2c3c(=O)n(C)c(=O)n(C)c3cn2C2CCCCC2)c1
  -0.3, -8.8, -3%, 17, 1.4, 3.8, 0.65
- Cc1nnc(SC(C)C(=O)Nc2ccc(Cl)cc2Cl)[nH]c1=O (stereo unspecified)
  0.0, 1.5, nt, 3, 5.9, -6.3, 0.64
- C[C@@H]1NC(=O)[C@@]2(C)[C@@H](c3ccccc3)[C@H]3COc4ccccc4[C@@H]3N2C1=O
  0.9, 0.2, nt, -3, 4.0, 1.3, nt
- CCC(C)C(=O)Nc1nnc(CCc2ccccc2)s1 (stereo unspecified)
  0.3, -0.5, 2%, -2, 1.6, -1.6, 0.64
- O=C(CCc1ccccc1)NNC(=O)COc1ccccc1Cl
  -0.4, 1.9, nt, 1, -0.1, 0.5, 0.65
- O=[N+]([O-])c1cc(S(=O)(=O)N2CCCC2)ccc1OCc1ccccc1
  0.7, 2.7, nt, -9, -1.8, -18, 0.71
- COc1ccccc1NS(=O)(=O)c1cc(N)ccc1N1CCOCC1
  -0.1, 2.6, -7%, 3, -3.8, -6.3, 0.71
- Cc1ccc2[nH]c(=O)c(C(c3nnnn3C3CCCC3)N(Cc3cccnc3)Cc3ccco3)cc2c1 (stereo unspecified)
  -0.5, -3.1, 4%&-29%, 5, 2.4, 2.9, 0.78
- CCN1CCN(CCCNC(=O)CS(=O)(=O)Cc2nc(-c3ccccc3C)oc2C)CC1
  -1.5, 4.0, nt, 0, -0.6, 0.3, 0.66
- COC(=O)Oc1cncc(C(=O)O)c1
  0.1, 2.1, 6%, 13, -0.7, -1.3, 0.74
- CCC(C)c1ccc(S(=O)(=O)Nc2cccnc2)cc1 (stereo unspecified)
  1.1, 2.8, nt, 3, 1.5, 3.4, 0.68
- O=C(COC(=O)Cc1ccc(F)cc1)NC1CCCCC1
  -0.2, -0.4, nt, 4, -2.6, 1.2, 0.72
- CC(=NNC(=S)N1CCCCC1)c1cccc(C)n1
  nt, nt, -3%, 3, -1.5, nt, nt
- Cc1cc(C)c(NC(=S)N(CCN2CCCCC2)Cc2ccco2)c(C)c1
  -0.4, 0.9, 31%, 9, 1.3, -1.4, 0.72
- CCOC(=O)c1c(NC(=O)C(C)Sc2nnc(C)c(=O)[nH]2)sc2c1CCCC2 (stereo unspecified)
  -0.3, 3.4, -1%, 4, -3.3, 11, 0.67
- O=c1c2c(-c3cccs3)csc2ncn1/N=C/c1ccc(OC(F)F)cc1
  nt, nt, -2%, 6, -0.6, -4.6, nt
- CCOC(=O)c1c(NC(C)=O)sc2c(O)c(Br)cc(Br)c12
  -0.2, 9.1, 17%, 5, -4.2, -2.4, 0.69
- COc1ccc(C)c2sc(=NC(=O)c3cccc(N4C(=O)CCC4=O)c3)n(C)c12
  -11, -177, -26%, 27, 1.3, 5.4, 0.7
- CCOc1ccc(CCNC(=O)COC(=O)C2CCN(S(=O)(=O)c3ccccc3)CC2)cc1OCC
  nt, 2.1, -5%, 0, -0.4, nt, 0.71
- Cc1ccccc1CC(=O)Nc1ccc(S(=O)(=O)N2CCOCC2)cc1
  0.0, -1.0, nt, 6, 3.3, -1.5, 0.74
- CCOc1ccc(NS(=O)(=O)c2ccc(OCC(=O)NCc3ccncc3)cc2)cc1
  -1.6, 4.0, nt, 0, -3.4, 4.0, 0.7
- O=C(NN=C1CCCCCC1)c1cccs1
  0.4, 1.9, -3%, 2, 1.8, 1.3, 0.69
- Cc1noc(NS(=O)(=O)c2ccc(N/C=C/C(=O)c3cccnc3)cc2)c1C
  -1.0, 16, ?, 8, -2.4, 2.3, 0.66
- CC(=O)Nc1ccc(NC(=O)C(C)OC(=O)/C=C/c2cccs2)cc1 (stereo unspecified)
  0.4, 5.5, nt, 1, -0.3, -2.8, 0.7
- CCOC(=O)C1CCN(c2cc(=O)n(-c3ccccc3Cl)c(=O)[nH]2)CC1
  -0.1, 2.7, -3%, 1, -1.9, 8.8, 0.67
- COc1ccc(NS(=O)(=O)c2ccc(N3CCOCC3)c(NC(=O)/C=C/C(=O)O)c2)cc1
  nt, 4.4, nt, -1, -5.1, nt, 0.65
- COC(=O)c1ccccc1N(C)S(C)(=O)=O
  -0.1, 1.7, -2%, 4, 4.1, -1.4, 0.7
- N#Cc1ccc2[nH]c(CO)c(-c3ccccc3)c2c1
  0.7, nt, nt, 1, 2.7, -2.6, nt
- CCC(=O)NC(=S)Nc1cccc(NC(=O)CC)c1
  1.2, 1.1, 3%, -4, 1.6, -1.4, 0.75
- O=C(Cn1nc(C(F)(F)F)c2c1CCCC2)NCc1ccco1
  0.2, -2.1, 2%, 0, -0.6, -0.1, 0.68
- COc1ccccc1N(C)S(=O)(=O)c1ccc(C(=O)OCC(=O)NCc2ccco2)cc1
  1.1, 4.7, 0%, 16, -1.7, 2.5, 0.7

Carrying on:
Values run as follows: Bfl-1 A1 inh, UCH37 DUB inh, Vif A3G, B2AR ag, HNF4A DNA FP, LANA-H2A inh, Ecoli growth
- C[C@@H](NC(=O)C1(c2ccccc2)CCN(C(=O)OC(C)(C)C)CC1)C(=O)N[C@@H](Cc1ccccc1)C(=O)O
  0.2, -1.0, nt, -1, 5.1, 0.3, 0.74
- CC1(C)Cc2c(cnn2-c2ccc(F)cc2)C(NC(=O)c2ccoc2)C1 (stereo unspecified)
  -1.0, 1.4, nt, 0, -5.3, -0.4, 0.69
- COc1ccccc1-n1c(CCC(=O)O)ccc1-c1ccccc1
  0.0, 0.8, 0%, 3, -0.8, -6.7, 0.72
- O=C(NCC(=O)N(c1cccc(F)c1)C(C(=O)NC1CCCC1)c1cccnc1)c1cccs1 (stereo unspecified)
  -0.6, -0.6, -3%, -11, 5.8, 5.1, 0.67
- COc1cccc(-c2cccc(NC(=O)C3CCN(CC4CCOC4)CC3)c2)c1 (stereo unspecified)
  0.6, 2.1, -9%, -6, 11, -2.8, 0.66
- Cc1cccc(NC(=O)CCC(=O)N2CCOCC2)n1
  0.3, 2.5, -2%, -4, -1.6, -0.2, 0.71
